Bfl-1 A1 inh: inhibitors of the anti-apoptotic protein A1, read as caspase activation. MEF A1-2A-BIM cells, Caspase-Glo 3/7 luminescence, 3 h; percent of clofoctol response, vehicle zero. caspase activation, % (concentration not given with the values). actives 0.066% (n = 330,000). AID 2462;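 active means over half of replicate activation scores above 10%, or exactly half above 10 with the replicate mean above 10; inconclusive means replicate mean below 10 yet half the replicates above 10; inactive means over half of replicates below 10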;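 further: wells of about 30 µL received 50 nL stock; many hits fall short of the cut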
MLL AF4-AF9 inh: inhibitors of human MLL-AF4/AF9 interaction. actives 0.47% (n = 350,000). AlphaScreen, biotin-AF4 peptide binding to FLAG-AF9. inhibition, % at 10 µM. AID 651704;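 active means every replicate reaching a set inhibition limit, whatever the replicate mean, cut at about 25% in these data; inconclusive means mean inhibition reaches that limit but some replicates miss it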;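 further: 0% = plate neutral control median and 100% = total signal loss; the record names both 10 and 1 µM as test concentration; the first replicate is given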
Target sequence (P42568 whole entry, looked up): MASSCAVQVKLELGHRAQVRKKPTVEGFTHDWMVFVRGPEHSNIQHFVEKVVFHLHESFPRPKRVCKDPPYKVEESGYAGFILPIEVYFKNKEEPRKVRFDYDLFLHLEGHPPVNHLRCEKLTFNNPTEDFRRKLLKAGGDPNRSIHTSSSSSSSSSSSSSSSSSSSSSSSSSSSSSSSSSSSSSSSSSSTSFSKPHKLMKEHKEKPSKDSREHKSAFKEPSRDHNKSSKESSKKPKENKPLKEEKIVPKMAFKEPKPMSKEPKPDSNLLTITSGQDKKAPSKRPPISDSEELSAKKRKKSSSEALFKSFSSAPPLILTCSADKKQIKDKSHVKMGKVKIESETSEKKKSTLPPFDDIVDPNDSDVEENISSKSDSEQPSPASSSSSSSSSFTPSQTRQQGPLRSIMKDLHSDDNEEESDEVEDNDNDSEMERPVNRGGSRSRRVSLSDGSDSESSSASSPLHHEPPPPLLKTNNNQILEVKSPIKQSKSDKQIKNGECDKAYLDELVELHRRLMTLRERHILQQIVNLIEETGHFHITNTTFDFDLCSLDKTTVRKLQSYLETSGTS
Calb FLC: affects C. albicans growth with fluconazole | C. albicans CaCi-2 (fluconazole-resistant clinical isolate) + fluconazole, Alamar Blue growth, 48 h | growth inhibition, % (concentration not given with the values) | actives 0.57% (n = 300,000) | AID 1979;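 active means most replicates above 75%; inconclusive means exactly half above 75%; inactive means most below 75%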;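 further: all wells also contain fluconazole at 8 µg/ml as a sub-toxic cotreatment; 0% = median of DMSO wells and 100% = median of geldanamycin control wells; wells of about 8 µL received 7.5 nL stock; the first replicate is given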
rRNA inh HTS: selective bacterial rRNA inhibition in E. coli. E. coli WT GFP vs humanized-ribosome RFP mutants, fluorescence, 24 h; hits give low values; DMSO median 0, no signal -100. GFP signal change (wild-type ribosome), % (concentration not given with the values). actives 1.6% (n = 350,000). AID 720706;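 active means significant combined selectivity score with lowered wild-type GFP, culture density cut under 30%, mutant RFP and density less affected; inactive means any of these conditions unmet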; further: one replicate is shown; some compounds called inactive have numbers as strong as hits
Beta cell apopt: beta cell apoptosis inhibition; INS-1E cytokine-induced death, ATP luminescence, 48 h; percent of positive-control rescue, neutral wells zero; protection from apoptosis, % (no concentration beside the values); actives 0.8% (n = 300,000);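 active means all replicates at 75% or more, or half of them and the mean; inconclusive means half reach 75% but not the mean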;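 further: 0% = cytokine-treated negative control wells and 100% = positive control rescue; higher means more ATP so stronger rescue from cytokine killing; wells of about 40 µL received 100 nL stock; the first replicate is given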
RanGTP-Impb inh: disruptors of Ran-importin-beta complex formation – biochemical, FRET, CFP-Ran, YFP-importin-beta, homogeneous, primary screen | cell-free CFP-Ran/YFP-importin-beta FRET ratio | AID 2216 | actives 1.1% (n = 300,000) | inhibition, % (concentration not given with the values);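 active means most replicates above 15%; inconclusive means exactly half above 15%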;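 further: 0% = DMSO wells and 100% = Ran loaded with GDP instead of GTP; wells of about 40 µL received 100 nL stock; the first replicate is given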
T cruzi inh: blocks replication of Trypanosoma cruzi; T. cruzi beta-gal in NIH3T3, luminescence, 90 h; AID 1885; inhibition, % (test concentration not listed); actives 1.4% (n = 300,000);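 active means mean inhibition across valid replicates above about 55%, limit read from the data; inconclusive means mean below that limit but half or more replicates reach it; inactive means mean below it, under half of replicates reach it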;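 further: signal also drops with host cell toxicity which is not excluded here; 0% = plate median of DMSO wells and 100% = zero luminescence signal; higher percent means less beta-gal luminescence so fewer parasites; stock transfer was 50 nL into about 50 µL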
Vif TR-FRET: HIV-1 Vif–A3G interaction blockers – biochemical, TR-FRET, GST-Vif 1-94, biotin-A3G peptide, dose response retest, primary screen (AID 1117319); TR-FRET GST-Vif / biotin-A3G peptide binding; higher % means a stronger effect; test concentration not given here; strong numbers were not always called active; one-dose inhibition, %; IC50 in µM for titrated hits; actives 0.57% (n = 260,000);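 active means above the screen mean plus three standard deviations and confirmed in dose response; inconclusive means results disagree or hit not tested in dose response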;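 further: Vif residues 1-94 fused to GST binding biotinylated APOBEC3G peptide 110-148; 0% = full assay without inhibitor and 100% = GST in place of GST-Vif; retest series ran down from 100 µM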
rRNA inh HTS OD600: further read-out of rRNA inh HTS, marked with its call; OD600 change, %; measured here: OD600 growth;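 optical density of the mix in the first replicate; 0 = DMSO median and -100 = no signal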
rRNA inh HTS RFP: second read-out of rRNA inh HTS, no call of its own (marks repeat the call); RFP signal change, %; measured here: RFP humanized mutant strains;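 first replicate; 0 = DMSO median and -100 = no signal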
* hit, by the source's call; ? = inconclusive; . = no result given; & = joins results of further samples. Not all compounds are listed; count on the stated rates, not on these rows.

SMILES	Bfl-1 A1 inh	MLL AF4-AF9 inh	Calb FLC	rRNA inh HTS	rRNA inh HTS OD600	rRNA inh HTS RFP	Beta cell apopt	RanGTP-Impb inh	T cruzi inh	Vif TR-FRET
Cc1nc2cc(C(=O)N3c4ccccc4CC3C)ccc2s1 (centres undefined)	0.1	0.9	-4	-9	-20	-2.2	16	-2.5	-29	0%
COc1ccc(N2CSC3=C(C#N)C(c4cc(OC)ccc4OC)CC(=O)N3C2)c(OC)c1 (centres undefined)	-0.4	.	-1	.	.	.	-4	13	9	?
COCCn1c(C(C)C)nc2ccccc21	1.0	-0.3	4	0	4	-1.2	-10	-0.6	-5	-6%
O=[N+]([O-])c1cccc(S(=O)(=O)Nc2ccc(S(=O)(=O)N3CCCC3)cc2)c1	-1.1	-0.7	7	12	-1	-3.7	0	4.4	0	-2%
O=C(Cc1c(F)cccc1Cl)Nc1ncc([N+](=O)[O-])s1	-4.8	-1.0	55	-50	-74	-5.2	27	-0.5	50	.
COc1cc(/C=C/C(=O)O)cc(S(=O)(=O)N2CCc3ccccc32)c1OC	-0.9	-20	6	-14	-7	2.3	-5	-1.9	0	-7%
CCOC(=O)c1c(NC(=O)CSc2nnnn2-c2ccc3c(c2)OCO3)sc(C)c1C	0.3	.	-18	.	.	.	-1	0.4	41	12%&-6%
Cc1cc(C)n(CCC(=O)N/N=C/c2ccc(O)cc2O)n1	0.2	.	-2	.	.	.	1	3.0	3	4%
Cc1ccc(S(=O)(=O)Nc2nc3ccc(S(C)(=O)=O)cc3s2)cc1	0.6	.	13	4	12	-1.5	-6	-1.8	-10	12%
CCN(CC)S(=O)(=O)c1ccc(/C=C/C(=O)OCC(=O)NCc2ccco2)cc1	-0.3	0.2	.	3	9	2.1	-8	.	.	.
COc1ccc(N2CCN(Cc3nc4c(c(=O)n(C)c(=O)n4C)n3C(C)C(C)=O)CC2)cc1 (centres undefined)	1.4	.	-13	.	.	.	4	-1.7	-9	16%
CCCCn1c(SCC(=O)N2CCOCC2)nnc1-c1ccoc1C	-0.4	.	-4	.	.	.	3	-15	-16	16%
CC(=O)NS(=O)(=O)c1ccc(Nc2ccc([N+](=O)[O-])c3nonc23)cc1	-0.4	-0.1	5	13	0	-2.3	4	-15	-2	-11%
CCOC(=O)c1cccc(NC(=O)c2ccc3c(c2)OCO3)c1	-5.9	-1.4	-1	-6	-8	-1.7	1	3.4	-6	-18%
O=C(NCc1ccccc1)c1ccc2c(=O)n(CCCN3CCCC3=O)c(=S)[nH]c2c1	1.1	.	-6	.	.	.	-6	-3.9	-13	13%
Cc1ccc(OCC(=O)N(Cc2cccs2)C2CCS(=O)(=O)C2)cc1C (centres undefined)	-1.2	-0.4	0	-10	-4	0.9	-6	0.8	4	5%
O=C(Nc1ccc(Br)cc1)Nn1cnnc1	-0.6	-3.4	4	1	5	-3.8	3	0.3	-8	.
CCCCC(=O)Nc1cccc(NC(=S)NC(=O)COc2ccccc2Cl)c1	0.6	7.2	7	6	-2	-4.3	-8	-1.1	-14	2%
C/C(N)=C(/C#N)C(=O)CSc1nnnn1-c1ccccc1	-0.1	.	3	.	.	.	-5	1.4	-8	?
CCCc1[nH]nc2c1C(C1CC=CCC1)C(C#N)=C(N)O2 (centres undefined)	0.7	-0.8	47	.	.	.	2	-1.2	4	-8%
Cc1onc(-c2ccccc2Cl)c1-c1nc(-c2ccccn2)no1	-0.2	.	?	.	.	.	-3	0.8	20	17%
CC(C)(C)OC(=O)N[C@@H](Cc1ccccc1)C(=O)N1CCC(C(=O)NCC(=O)O)CC1	-0.4	-4.0	-5	13	4	1.2	0	-4.6	-11	1%
O=C(COc1ccccc1)N=C1SC2CS(=O)(=O)CC2N1Cc1ccccc1 (centres undefined)	1.3	3.2	2	6	19	0.2	4	?	-3	.
Cc1ccc(-c2cc(C(F)(F)F)c(C#N)c(SCCC#N)n2)o1	0.7	.	1	.	.	.	2	4.9	22	?
COc1ccc(C(=O)Nc2ccc(C(=O)Nc3cccc(C)c3)cc2)cc1	0.5	-0.4	4	8	12	1.8	51	-0.4	2	.
Other entries
SMILES	Bfl-1 A1 inh	MLL AF4-AF9 inh	Calb FLC	rRNA inh HTS	rRNA inh HTS OD600	rRNA inh HTS RFP	Beta cell apopt	RanGTP-Impb inh	T cruzi inh	Vif TR-FRET
COCCSc1nnc(NC(=O)c2ccc3c(c2)OCO3)s1	-0.4	-1.7	8	34	21	1.4	-4	2.7	-16	0%
COc1ccc(C=O)cc1COc1ccc([N+](=O)[O-])c(C)c1	0.4	0.4	-12	4	0	3.7	-1	2.7	-4	1%
S=C(NCC1CCCO1)NC1CCCCC1 (centres undefined)	1.1	-4.9	2	12	4	-0.4	0	0.7	-8	1%
CCC(CC)C(=O)NCCc1ccc(OC)c(OC)c1	0.5	.	17	.	.	.	1	?	-5	18%
CCc1ccc(C(=O)NNC(=S)Nc2ccc(S(N)(=O)=O)cc2)s1	0.9	0.3	-13	-1	-4	-4.6	-5	-0.4	-7	26%
CC(=O)c1c(C)[nH]c(C(=O)OCC(=O)Nc2nnc(-c3ccccc3)o2)c1C	1.2	1.4	.	.	.	.	-6	.	.	-12%
CCOC(=O)C1(CCOc2ccccc2)CCN(Cc2ccc(C#CCCO)cc2)CC1	0.4	8.7	-21	3	-4	-0.9	.	6.1	26	.
COC(=O)C1=CN(c2ccc(OC)cc2)C=C(C(=O)OC)C1c1ccc([N+](=O)[O-])cc1	1.1	6.4	1	11	21	5.7	15	0.9	60*	.
COC(=O)CSc1nnc(CNS(=O)(=O)c2ccc(Cl)cc2)n1C	-0.5	.	-2	.	.	.	0	0.5	9	-3%
CCOc1ccc(NC(=O)CSc2nc(C)cc(C)n2)cc1	-0.1	.	4	.	.	.	-3	4.4	-12	-6%
Cc1ccc(NC(=O)CCNS(=O)(=O)c2ccc3c(c2)oc(=O)n3C)c(C)c1	-0.8	2.8	-1	-6	-3	-3.1	2	-5.7	-11	-2%
O=C(NCC1CCCO1)c1ccc2c(=O)n(Cc3cccc(Br)c3)c(=S)[nH]c2c1 (centres undefined)	0.5	-0.3	4	21	9	-0.1	20	-1.9	3	26%
COC(=O)c1ccc(NC(=O)CCN2C(=O)CSC2=O)cc1	0.5	-1.2	6	3	2	0.2	-2	0.0	-24	30%
Cc1cc(C)cc(N(CCC#N)C(=O)COC(=O)c2ccc(OCc3c(C)noc3C)cc2)c1	-0.6	4.0	-4	3	4	1.4	7	2.5	-5	4%
COCCNC(=O)C(c1ccc(C)o1)N(Cc1ccco1)C(=O)c1snc(C(N)=O)c1N (centres undefined)	0.2	.	.	.	.	.	0	?	3	6%
NC(=O)CCN1CCN(S(=O)(=O)/C=C/c2ccccc2)CC1	1.3	-0.3	6	3	4	-1.9	2	3.0	-14	.
COCCNC(=S)N/N=C(\C)CCc1ccc2c(c1)OCO2	0.2	-1.9	-1	8	7	1.6	-8	-1.6	1	3%
CC(c1ccccc1F)n1cc(C(=O)NCCCn2ccnc2)nn1 (centres undefined)	-0.3	.	6	.	.	.	-4	-0.7	-3	4%
CCCNS(=O)(=O)c1ccc(OCC(=O)NCC2CCCO2)cc1 (centres undefined)	0.3	-0.4	6	4	9	-1.4	-6	6.8	-2	.
CCOC(=O)C1CCN(C(=O)C2CCN(c3ncnc4c3nc3n4CCCCC3)CC2)CC1	-0.8	-2.8	-7	-5	-9	0.7	-9	-4.6	1	.
Cc1noc(C)c1COC(=O)COc1ccc(-c2ccccc2)cc1	-1.5	4.8	19	-7	2	1.3	1	2.5	4	-6%
Cc1ccccc1NC1C=CS(=O)(=O)C1 (centres undefined)	0.6	.	-6	.	.	.	-6	1.7	-5	18%
COc1ccc(NS(=O)(=O)c2ccc(OCC(=O)N3CCCC3)cc2)cc1	0.1	.	6	.	.	.	5	-3.2	-17	4%
N/C(=N/S(=O)(=O)c1ccccc1)c1cccc([N+](=O)[O-])c1	0.7	-0.6	-4	7	10	0.6	-5	?	-5	2%
CSc1nnc(Cn2c(=O)sc3ccccc32)n1C	0.1	-1.8	7	10	7	-2.1	-2	2.1	-7	6%
Additional structures.
SMILES	Bfl-1 A1 inh	MLL AF4-AF9 inh	Calb FLC	rRNA inh HTS	rRNA inh HTS OD600	rRNA inh HTS RFP	Beta cell apopt	RanGTP-Impb inh	T cruzi inh	Vif TR-FRET
COc1ccc(OC)c(/C=C/C(=O)Nc2cccc(S(=O)(=O)N3CCCC3)c2)c1	-0.9	?	-22	-18	-7	-1.2	0	-1.7	42	6%
CC(NC(=O)NCc1cccnc1)(C(F)(F)F)C(F)(F)F	-0.3	.	2	.	.	.	0	0.9	-6	19%
CC(=O)NC12CC3CC(C1)CC(C(=O)N1CCN(S(=O)(=O)c4cccc(C(F)(F)F)c4)CC1)(C3)C2	0.1	-14	-2	-2	5	2.0	2	-5.9	0	-3%
OCC1(Cc2cccc(Cl)c2)CCCN(Cc2cn[nH]c2C2CCCCC2)C1 (centres undefined)	1.0	0.5	-4	-10	-5	4.1	9	2.5	45	.
Fc1ccc(-c2nnc3ccccn23)cc1	.	-15	10	4	0	-0.4	.	-0.3	-5	4%
Cc1ccc(S(=O)(=O)N2CCC(C(=O)N[C@H](C(=O)NCc3ccco3)C(C)C)CC2)cc1	0.8	.	-11	.	.	.	-7	0.8	-14	13%
CC(C)Cn1nnc2c(=O)oc3ccccc3c21	.	.	25	.	.	.	.	1.4	-1	17%
CCOC(=O)Cc1csc(NS(=O)(=O)c2ccc3ccccc3c2)n1	1.7	1.6	51	-32	-46	8.9	0	6.9	-4	?
CCNc1nc(N)c(C(=O)C23CC4CC(CC(C4)C2)C3)s1	-0.5	.	-1	-23*	-6.0*	-0.9*	-5	-1.6	35	-11%
O=C(CN1C(=O)c2ccccc2C1=O)NCC1COc2ccccc2O1 (centres undefined)	0.1	.	6	.	.	.	2	2.4	3	-2%
CCc1cc(=O)oc2cc(OCC(=O)NCCCN3CCCC3=O)c(Cl)cc12	0.9	-3.8	-2	-3	2	-2.7	2	-4.1	-1	0%
CCn1nnnc1SCC(=O)c1cc(Cl)ccc1OC	-0.7	-1.0	38	-6	-2	1.1	-4	?	-7	0%
CCCCN(C(=O)Cc1coc2cc(C)c(C)cc12)c1c(N)n(Cc2ccccc2)c(=O)[nH]c1=O	-0.9	-0.8	-9	2	9	-1.2	-2	-2.7	8	9%
CC1(c2ccccc2)NC(=O)N(CC(=O)N2CCN(S(=O)(=O)c3c(F)cccc3F)CC2)C1=O (centres undefined)	0.6	2.7	.	2	5	-1.5	2	.	.	.
CC(C)Cn1nc(C(=O)Nc2nnc(C3CC3)s2)c2ccccc2c1=O	0.2	-0.3	.	-3	-6	-2.2	-1	.	.	5%
COc1ccc(-c2cc3nc(C)c(CCC(=O)NCc4ccco4)c(C)n3n2)c(OC)c1	0.0	.	-40	.	.	.	2	2.5	8	20%

Screening data as filed in PubChem.
